ALR H2O2 inh = human ALR oxidase inhibition via reduced H2O2; 290,000 compounds, 3.8% hits; AID 485317; P55789; purified ALR, DTT oxidation, H2O2 HRP-luminol luminescence; inhibition, % (concentration not given with the values);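 active = mean and each replicate at 75% or more; inconclusive = only one of the two met; inactive = neither met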;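 note: stock transfer was 7.5 nL into about 7.5 µL; 0% = neutral wells and 100% = wells with inactivated enzyme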
Beta2AR agonist = activates human beta-2 adrenergic receptor causing internalization. P07550. response, % (test concentration not listed). AID 504454. 340,000 compounds, 0.43% hits. Am2.2-beta2AR cells, FAP receptor internalization, flow cytometry; reference of the scale not given here;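 active = response above a set limit, near 3 SD of response in nonfluorescent compounds, cut at about 42% in these data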;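 note: stock transfer was 100 nL into about 11 µL; a reference agonist was the positive control; negative values mostly stem from fluorescent compounds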
Target sequence (P07550 whole entry, looked up): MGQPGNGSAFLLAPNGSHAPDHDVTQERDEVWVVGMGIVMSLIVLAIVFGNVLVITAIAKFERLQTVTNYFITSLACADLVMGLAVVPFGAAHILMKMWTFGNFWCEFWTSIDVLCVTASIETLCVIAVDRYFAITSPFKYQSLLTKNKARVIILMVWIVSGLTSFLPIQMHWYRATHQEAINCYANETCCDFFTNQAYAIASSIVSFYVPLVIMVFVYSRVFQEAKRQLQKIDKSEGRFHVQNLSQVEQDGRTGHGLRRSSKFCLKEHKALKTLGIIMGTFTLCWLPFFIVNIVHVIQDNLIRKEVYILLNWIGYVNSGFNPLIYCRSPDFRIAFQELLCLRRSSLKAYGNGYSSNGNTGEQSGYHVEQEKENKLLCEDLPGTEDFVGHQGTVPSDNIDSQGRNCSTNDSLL
Vif TR-FRET = inhibitors of Vif binding to APOBEC3G peptide, primary screen, biochemical, TR-FRET, GST-Vif 1-94, biotin-A3G peptide, dose response retest (AID 1117319); TR-FRET GST-Vif / biotin-A3G peptide binding; higher % means a stronger effect; test concentration not given here; strong numbers were not always called active; inhibition, %, or IC50 in µM where a hit was titrated; 260,000 compounds, 0.57% hits;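 active = above the screen mean plus three standard deviations and confirmed in dose response; inconclusive = results disagree or hit not tested in dose response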;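 note: Vif residues 1-94 fused to GST binding biotinylated APOBEC3G peptide 110-148; 0% = full assay without inhibitor and 100% = GST in place of GST-Vif; retest series ran down from 100 µM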
RanGTP-Imp inh = disruptors of Ran-importin-beta complex formation – biochemical, FRET, CFP-Ran, YFP-importin-beta, homogeneous, primary screen. inhibition, % (test concentration not listed). cell-free CFP-Ran/YFP-importin-beta FRET ratio. 300,000 compounds, 1.1% hits;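 active = most replicates above 15%; inconclusive = exactly half above 15%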;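 note: 0% = DMSO wells and 100% = Ran loaded with GDP instead of GTP; wells of about 40 µL received 100 nL stock; the first replicate is given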
Calb FLC = affects C. albicans growth with fluconazole; C. albicans CaCi-2 (fluconazole-resistant clinical isolate) + fluconazole, Alamar Blue growth, 48 h; growth inhibition, % (test concentration not listed); 300,000 compounds, 0.57% hits;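 active = most replicates above 75%; inconclusive = exactly half above 75%; inactive = most below 75%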;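 note: all wells also contain fluconazole at 8 µg/ml as a sub-toxic cotreatment; 0% = median of DMSO wells and 100% = median of geldanamycin control wells; wells of about 8 µL received 7.5 nL stock; the first replicate is given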
HNF4A DNA FP = change in binding of human HNF4 alpha to DNA; HNF4a-FITC DNA binding, fluorescence polarization, 1 h; activity change, % at 10 µM; 360,000 compounds, 0.3% hits; in the data active = activity change above about 30%, passing the limit was not always enough;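 note: controls were the assay level and a saturating level of protein; the project sought stronger binding though the title names inhibitors; some compounds called inactive have numbers as strong as hits; positive values seem to mean higher polarization but the record does not say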
Target sequence (P41235 whole entry, looked up): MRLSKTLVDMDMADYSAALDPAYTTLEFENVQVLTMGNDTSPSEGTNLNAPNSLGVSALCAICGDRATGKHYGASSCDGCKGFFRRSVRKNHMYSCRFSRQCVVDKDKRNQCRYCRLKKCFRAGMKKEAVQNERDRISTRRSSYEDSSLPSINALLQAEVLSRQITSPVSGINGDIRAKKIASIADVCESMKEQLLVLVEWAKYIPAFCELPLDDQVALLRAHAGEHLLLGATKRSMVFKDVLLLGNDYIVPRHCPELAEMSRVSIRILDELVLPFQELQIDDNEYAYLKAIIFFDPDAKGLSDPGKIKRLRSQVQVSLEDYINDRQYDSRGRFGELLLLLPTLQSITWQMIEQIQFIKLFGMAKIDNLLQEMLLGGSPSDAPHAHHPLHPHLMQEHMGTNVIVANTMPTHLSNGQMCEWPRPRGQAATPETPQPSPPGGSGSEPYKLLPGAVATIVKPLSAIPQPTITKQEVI
LANA-H2A inh = blocks KSHV LANA binding to histone H2A/H2B; AID 2629; inhibition, % (no concentration beside the values); Q9QR71; 320,000 compounds, 0.6% hits; cell-free LANA-H2A/H2B peptide, fluorescence polarization; in the data active = inhibition mostly above about 10%, no sharp cut-off; inactive = mostly below about 6.7%;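 note: stock transfer was 7.5 nL into about 10 µL; 0% = median of vehicle wells and 100% = median of positive control wells; one replicate is shown; the record names a cut of 25% in any replicate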
Numbers without * were called inactive; ? = inconclusive; · = not tested or not shown.

Value order – ALR H2O2 inh	Beta2AR agonist	Vif TR-FRET	RanGTP-Imp inh	Calb FLC	HNF4A DNA FP	LANA-H2A inh
O=C(NCc1ccco1)C1CC(O)CN1C(=O)Nc1ccccc1 (configuration not stated)
 : 4	-1	·	-0.8	0	-3.4	-14
O=C1NCCc2c1[nH]c1c(Cl)ccc(Cl)c21
 : 3	8	-3%	-3.8	4	-0.6	1.9
COc1cc(C(C#N)N2CCCCC2)ccc1O (configuration not stated)
 : -11	-5	7%	-0.5	-1	0.2	-3.7
Cc1ccc(/C=C2/C(=O)c3ccc(C(=O)O)cc3C2=O)o1
 : ·	8	·	19*	10	-43	·
CC(=O)C(Sc1ccc2nnc(-c3ccncc3)n2n1)C(C)=O
 : 4	3	11%	9.6	3	2.2	2.3
Cc1nc(CCNC(=O)CC2C(=O)NCCN2Cc2ccccc2)sc1C (configuration not stated)
 : -3	1	·	?	-3	-2.0	-4.2
Cc1ccc(-c2ccc(S(=O)(=O)NCc3ccco3)cc2)cc1
 : -6	-6	1%	1.7	31	-4.1	1.5
Cn1nnnc1SCC(=O)Nc1cc(C(C)(C)C)nn1-c1ccccc1
 : -3	-15	-8%	4.4	37	1.5	0.2
CSCC[C@H](NC(=O)c1cccc(S(=O)(=O)N2CCCCCC2)c1)c1nc2ccccc2[nH]1
 : -3	-6	-2%	·	·	4.7	3.0
COc1cc(OC)c(CN2CCN(c3ccc(F)cc3)CC2)cc1Br
 : 36	1	0%	-0.9	-7	0.9	0.8
COc1ccc(CCC(=O)Nc2ccccc2C(F)(F)F)cc1
 : -6	10	-4%	2.3	-3	-3.4	-4.0
COc1ccc(S(=O)(=O)NC(C)C(=O)NCc2ccncc2)cc1C (configuration not stated)
 : 0	-7	·	3.8	4	5.0	1.7
Cc1ccccc1N(CC(=O)N/N=C/c1cc(C)n(-c2ccccc2C)c1C)S(C)(=O)=O
 : 1	6	16%	0.2	-7	-2.9	-2.7
Cc1cc(NC(=O)CCCN2C(=O)c3cccnc3C2=O)no1
 : 1	0	0%	-4.3	15	0.1	-8.7
N[C@@H](Cc1ccccc1)C(=O)N1CCOCC1
 : ·	1	·	1.9	3	2.4	2.0
O=C(COC(=O)c1cnccn1)Nc1cccc2ccccc12
 : -10	2	3%	-4.2	8	4.9	-2.3
O=C1C2C(c3ccccc3)C=CC(c3ccccc3)C2C(=O)N1C1CCCCC1 (configuration not stated)
 : -8	-2	-4%	-0.8	2	2.9	3.9
O=C(O)COc1nsnc1N1CCOCC1
 : -7	-1	-2%	?	11	4.9	0.9
O=C(NCc1ccco1)C1CCCN1C(=O)NCc1ccccc1 (configuration not stated)
 : -2	1	?	-2.4	-23	2.1	1.8
N/C(=N\OC(=O)CCc1ccccc1)c1cccnc1
 : -10	13	6%	-4.7	24	-1.5	-3.6
Cc1ccccc1OCC(=O)Nn1c(COc2ccccc2)nc2ccccc2c1=O
 : 1	-1	1%	-2.9	-11	-0.3	-1.1
CN(C(=O)Nc1cccc(C(F)(F)F)c1)C1CCCCC1
 : -3	-3	·	8.7	2	4.1	-1.6
Cc1ccccc1C(=O)NC1CCN(Cc2nnnn2CCc2ccccc2)CC1
 : -2	-3	15%	·	-12	-0.5	1.5
Cc1cccc(C=NOCCc2ccccc2)n1
 : ·	4	-4%	·	·	-0.6	·
COc1cccc(NS(=O)(=O)c2ccc3c(c2)N(C(C)=O)CCS3)c1
 : 2	-1	1%	2.5	-14	0.5	-3.7
Cc1cccc(-c2c3c(=O)n(C)c(=O)n(C)c3cn2C(C)C)c1
 : 3	1	6%	1.9	0	-1.1	-2.9
CC1CCC/C(=N\NC(=O)COc2ccc(Cl)cc2Cl)C1 (configuration not stated)
 : ·	3	8%	4.8	4	0.4	·
Nc1cnccc1C(=O)O
 : -40	-3	9%	0.0	-3	-88	6.5
CC(NC(=O)c1ccc(C(F)(F)F)cc1)C(c1ccccc1)N1CCOCC1 (configuration not stated)
 : -2	4	-9%	-1.3	-3	-0.6	0.2
O=C(NCc1ccco1)NC(=O)c1csc([N+](=O)[O-])c1
 : -9	-2	-9%	1.4	-2	1.2	-0.1
CC(C)C(=O)Nc1cc(-c2nc3ncccc3o2)ccc1Cl
 : -3	-21	1%	-2.8	3	0.2	-1.0
CCOC(=O)c1cc(-c2csc(COc3ccccc3Cl)n2)on1
 : -13	4	6%	2.2	8	-4.4	-2.0
Cc1ccccc1Cn1nnc(-c2ccc(F)cc2)n1
 : 93*	40	-2%	-0.3	-9	4.8	2.9
Cc1cccc(NC(=O)[C@H](NC(=O)[C@@H]2Cc3ccccc3CN2)c2ccccc2)c1
 : -5	-9	·	1.9	3	-2.7	-1.6
Cc1ccc(NC(=O)Nc2nnc(-c3ccccc3F)s2)cc1
 : -3	-6	22%	?	-1	-1.0	-6.5
Cc1cc(NNC(=O)c2ccccc2)nc(NNC(=O)c2ccccc2)n1
 : 71	-2	2%	-1.3	-4	2.4	0.9
CCOC(=O)c1c(C)[nH]c(C(=O)COc2ccc3ccc(=O)oc3c2)c1C
 : -1	12	·	·	·	5.0	-11
c1ccc(-c2nn3c(Cn4nnc5ccccc54)nnc3s2)cc1
 : -8	0	6%	1.9	-11	-2.6	2.6
CCCN1C(=O)CC(=O)N=C1SCC(=O)Nc1ccccc1F
 : 99*	3	·	·	·	7.1	-1.6
CCCCOc1ccc(Br)cc1/C(C)=N/NC1=NCCN1
 : 4	48*	-8%	1.4	27	4.6	0.5
COc1cc(C=O)ccc1OS(=O)(=O)c1ccccc1[N+](=O)[O-]
 : -9	-2	·	-4.0	-15	-4.4	0.1
O=C(CSc1ccc2nnc(-c3cccnc3)n2n1)Nc1ccc(F)cc1F
 : 7	5	·	0.0	7	2.7	0.0
O=C(NCCc1ccccc1)C(=O)NCC1OCCN1S(=O)(=O)c1ccc(Cl)cc1 (configuration not stated)
 : -2	-3	4%	2.7	13	-2.8	-0.1
O=C(COc1ccccc1F)NCCc1ccc2c(c1)OCCO2
 : 0	-12	-2%	·	·	2.4	2.8
CN(C)c1ccc(NC(=O)C2C3C=CC(C3)C2C(=O)O)cc1 (configuration not stated)
 : 99*	14	21%	1.0	92*	-1.3	-2.6
COc1cccc(Nc2nc3ccccc3nc2NS(=O)(=O)c2ccc(NC(C)=O)cc2)c1
 : -3	6	·	-1.2	-4	0.0	2.3
O=C(Nc1c2c(nc3ccccc13)CCCC2)c1ccccc1Br
 : -5	-2	·	5.5	-21	-2.6	-5.9
COc1ccc(CCN(C(=O)c2ccccc2)C2=CC3CCC(C2)N3C)cc1OC (configuration not stated)
 : ·	·	3%	-1.3	4	·	·
CCOC(=O)c1noc(C)c1C(=O)Nc1nccs1
 : -6	-1	15%	-1.1	-7	-0.6	7.3
COc1ccc(OC)c(C2C3=C(COC3=O)Nc3cc4c(cc32)OCO4)c1 (configuration not stated)
 : 99*	38	9%	2.3	9	-2.8	1.5
CN1CCN(S(=O)(=O)c2ccc(NC(=S)NC(=O)C(C)(C)C)cc2)CC1
 : 14	1	-1%	0.1	24	-0.3	-3.2
CCOC(=O)c1sc(NC(=O)Nc2ccccc2)cc1C
 : ·	16	·	2.6	?	3.8	3.7
CN(C)Cc1ccccc1C1(O)c2ccccc2CSc2ccccc21 (configuration not stated)
 : -5	8	1%	1.4	6	-1.0	-3.6
O=C(COc1ccccc1Cl)Nc1ccccc1C(=O)Nc1cccc(C(=O)O)c1
 : -3	5	-8%	-1.8	1	3.3	1.2
O=C(NCCNc1ccc([N+](=O)[O-])cc1)c1cccc(Br)c1
 : -19	-7	5%	-1.2	-5	5.9	2.7
COCCn1c(SCC(=O)N2CCC(C)CC2)nc2ccccc2c1=O
 : -3	1	65%	2.2	-5	3.3	3.0
Cc1ccc(S(=O)(=O)NCCC(=O)NCc2ccc(Cl)cc2)cc1C
 : -3	-3	-1%	·	·	1.0	-0.2
c1ccc(Cn2nnnc2C(c2ccccc2)N2CCN(c3nc4ccccc4s3)CC2)cc1 (configuration not stated)
 : ·	-4	?	1.5	0	-2.0	-2.7
CCNC(=O)CC1C(=O)N(CC)C(=S)N1NC(=O)c1ccc(Cl)cc1 (configuration not stated)
 : ·	4	-8%	-4.6	-11	-1.2	0.3
NS(=O)(=O)c1cccc(NC(=O)CN2CCN(S(=O)(=O)c3ccc4c(c3)OCCO4)CC2)c1
 : 0	1	-12%	·	·	5.9	-2.2

Single records (already shown).
`COc1ccc(CCN(C(=O)c2ccccc2)C2=CC3CCC(C2)N3C)cc1OC` (configuration not stated) is entered as ALR H2O2 inh = ·; Beta2AR agonist = ·; Vif TR-FRET = 3%; RanGTP-Imp inh = -1.3; Calb FLC = 4; HNF4A DNA FP = ·; LANA-H2A inh = ·
`CN(C)Cc1ccccc1C1(O)c2ccccc2CSc2ccccc21` (configuration not stated) is entered as ALR H2O2 inh = -5; Beta2AR agonist = 8; Vif TR-FRET = 1%; RanGTP-Imp inh = 1.4; Calb FLC = 6; HNF4A DNA FP = -1.0; LANA-H2A inh = -3.6

The list continues:
Value order – ALR H2O2 inh	Beta2AR agonist	Vif TR-FRET	RanGTP-Imp inh	Calb FLC	HNF4A DNA FP	LANA-H2A inh
CCc1cc2c(-n3nc(C)cc3C)ncnc2s1
 : -2	-10	7%	-2.1	2	2.3	-0.5
S=C(c1ccc2c(c1)OCO2)N1CCCCC1
 : 21	9	2%	3.4	-3	1.8	-17
CCOC(=O)c1sc(C)c(C(N)=O)c1NC1=NCCCCC1
 : -6	3	?	4.5	-6	-0.2	-0.7
COc1ccc(N2C(=O)C(Cl)=C(N3CCOCC3)C2=O)cc1
 : 13	-8	21%	2.0	0	0.1	1.3
C#CCN(CC=C)C(=O)c1ccc(OC2CCN(S(=O)(=O)N(C)C)CC2)cc1
 : -2	5	·	2.7	-6	3.3	1.0
O=C(Nc1ccc(F)cc1)Nc1cccnc1
 : 5	5	1%	3.6	-5	-1.6	5.8
CCn1nc(C)c(/C=N/NC(=O)c2nc3nc(C)cc(C)n3n2)c1C
 : ·	-1	3%	-1.9	-2	2.2	1.0
CN(C)CCN1C(=O)C(=O)/C(=C(/O)c2ccc(S(=O)(=O)N3CCOCC3)cc2)C1c1ccccc1 (configuration not stated)
 : -2	-4	·	3.0	24	-3.0	0.1
COc1ccc(-n2c(Cc3ccccc3)nnc2SCC(=O)N2CCCc3ccccc32)cc1
 : -3	-6	·	3.3	-1	-1.8	0.4
COc1ccc(/C=N/NC(=O)C(Cc2c[nH]c3ccccc23)NC(=O)OCC(C)C)cc1[N+](=O)[O-] (configuration not stated)
 : -4	-14	-4%	?	-11	-2.6	1.1
COc1ccc(CCNC(=O)CC2Oc3ccc(Cl)cc3NC2=O)cc1OC (configuration not stated)
 : -10	-1	1%	4.2	1	-1.1	-9.1
COc1ccccc1NS(=O)(=O)c1ccc(C(N)=O)cc1
 : -3	1	6%	-2.4	3	-3.3	-1.1
